# Mtb growth – Confirmatory growth inhibition assay against Mycobacterium tuberculosis H37Rv, potency (AID 1949); most inactive calls were filed without a number and no value below 0 was filed; inhibition, % at 10 µg/mL, or IC50 in µg/mL where a hit was titrated; hit rate 1.6% among 100,000;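 active means confirmed in a dose series; inconclusive means about 50% or more but not retested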;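 further: bacteria grown 7 days with compound before Alamar blue readout; 0% = untreated bacteria and 100% = reference antibiotic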
# * = called active by the depositor; i = inactive; ? = inconclusive. The list is partial, so the mix of outcomes need not match the whole.
SMILES,Mtb growth
COc1ccc(S(=O)(=O)Nc2cccc(C(C)=O)c2)cc1Cl,i
Cc1cc(Br)ccc1NC(=S)NC(=O)C(c1ccccc1)c1ccccc1,i
Cc1ccc(Cl)cc1N(CC(=O)Nc1cccc([N+](=O)[O-])c1)S(C)(=O)=O,i
Cc1nc2[nH]onc2c2nccc(=O)c12,6%
CCOC(=O)CSc1nnc(-c2ccccc2OC)o1,6%
CCOC(=O)N1CCN(C(=O)c2ccccc2-c2ccccc2)CC1,i
Cc1c(C(=O)N2CCc3ccccc32)oc2ccccc12,6%
Cc1ccc2nsnc2c1S(=O)(=O)NCc1ccc2c(c1)OCO2,i
COc1cc(C#N)ccc1OCc1ccc(C(=O)O)cc1,i
O=C(Cc1ccc(Cl)cc1)NCC(=O)N1CCCCCC1,1%
COc1ccccc1N(CC(O)CN(Cc1ccccc1)Cc1ccccc1)S(=O)(=O)c1ccccc1 (stereo not drawn),9%
C=CCNC(=O)c1cc(-c2ccccn2)nc2c(C)cc(C)cc12,0%
COC(=O)c1ccccc1NC(=O)CSc1nnc(NC(=O)c2cccc(C)c2)s1,i
COc1ccc(-c2nn(C)c(=O)c3ccccc23)cc1CNS(C)(=O)=O,0%
CCOC(=O)C1CCN(C(=O)C(C)Oc2ccc(Br)cc2)CC1 (stereo not drawn),i
COC(=O)c1ccccc1NC(=O)N1CCN(c2ccc(Cl)c(Cl)c2)CC1,i
CC(C)c1ccccc1NC(=O)COc1ccc(/C=C(\C#N)c2nc3ccccc3[nH]2)cc1,i
COC(=O)c1cc(COc2ccc3oc(C)c(C(=O)OC(C)C)c3c2)c(C)o1,3%
CCc1cc(=O)oc2cc(C)cc(OC(C(=O)OC)c3ccccc3)c12 (stereo not drawn),i
N#Cc1ccc(NC(=O)C2CCCCC2C(=O)O)cc1 (stereo not drawn),i
COc1ccc(N(CC(=O)Nc2cccc(F)c2)S(C)(=O)=O)cc1OC,i
O=C(COc1c(-c2ccco2)oc2ccccc2c1=O)Nc1ccccc1,i
CSc1cccc(NS(=O)(=O)c2c(C)cc(C)cc2C)c1,1%
O=C(CSc1nc(-c2ccccc2)cc(=O)[nH]1)NCc1cccs1,i
COc1ccc(C(CCN)c2ccccc2)cc1 (stereo not drawn),i
COC(=O)c1c(NC(=O)c2ccc(C)c(Br)c2)sc2c1CCCC2,i
Cc1ccc(NC(=O)C(C)(C)C)cc1C,i
CCN(CC(=O)NCc1ccncc1)S(=O)(=O)c1ccc(Cl)cc1,i
O=C(Nc1ncccn1)c1cc2c(s1)CCCCCC2,i
N#Cc1c(NC(=O)CSc2nnc(-c3ccccc3)o2)sc2c1CCCC2,?
Cn1c(=O)c2c(ncn2CC(=O)Nc2ccc(Cl)cc2Cl)n(C)c1=O,i
CNC(=S)Nc1ccc2c(c1)OCO2,i
CC(C)(C)c1ccc(OC(=O)N2CCCCC2)cc1,3%
CCOC(=O)c1c(-c2cc(C)c(C)c(C)c2)csc1N,13%
O=C(Cc1ccccc1)NC(=S)Nc1ccccc1OC(F)F,i
COc1ccc2nc(NC(=O)CN3CCOCC3)sc2c1,i
CC1(C)CC(=O)c2c(Cc3ccccc3)n[nH]c2C1,1%
Cc1ccc(C(=O)Nc2sc3c(c2C(N)=O)CCCCCC3)o1,i
COc1cc(/C=C/C(=O)O)cc(S(=O)(=O)N2CCCc3ccccc32)c1OC,i
CCN(c1cccc(C)c1)S(=O)(=O)c1ccc(F)cc1,i
COc1ccccc1C(=O)Nc1ccccc1SC,?
CCN(CC)C(=O)N1CCN(S(=O)(=O)c2ccc(Cl)cc2)CC1,i
CCn1c(SCC(=O)N2CCc3ccccc32)nnc1-c1cccs1,10%
Cc1ccc(NC(=O)c2ccccc2Cl)cc1NC(=O)c1ccc(Cl)cc1,i
COc1ccc2c(c1)c(=O)oc1cc(OCC(=O)N(C)c3ccccc3)ccc12,i
CC(=O)Nc1ccc(S(=O)(=O)N2CCN(c3ccc([N+](=O)[O-])c(NCC4CCCO4)c3)CC2)cc1 (stereo not drawn),i
O=C(O)c1ccc(NS(=O)(=O)c2ccc(F)c(Cl)c2)cc1,i
CCN(CC)C(=O)c1sc(NC(=O)c2ccccc2C)c(C(=O)OC)c1C,i
NC(=O)C1(N2CCCCC2)CCN(C(=O)CSc2nc3ccccc3o2)CC1,i
O=C(Nc1cc(C(F)(F)F)ccc1N1CCCCC1)c1ccccc1I,i
O=C(CN(Cc1ccc(Cl)c(Cl)c1)S(=O)(=O)c1ccccc1)N1CCCCC1,2%
Cc1cccc(NC(=S)NC(=O)c2ccccc2Cl)c1C,i
CCOc1ccccc1N1CCN(S(=O)(=O)c2cc(Cl)c(C)cc2OC)CC1,i
CCc1ccccc1NC(=O)c1sc2cc(Cl)ccc2c1Cl,0%
COc1ccc(C(=O)Nc2ccccc2C(=O)N2CCCCC2C)cc1 (stereo not drawn),0%
O=C(O)c1cc(N2C(=O)CCC2=O)ccc1Cl,i
Cc1cc(C)c(S(=O)(=O)N(C)CC(=O)Nc2ccc(S(N)(=O)=O)cc2)c(C)c1,i
Cc1ccc(C(=O)Nc2cc(C(F)(F)F)ccc2N2CCOCC2)c(Cl)c1,i
Nn1c(SCCOc2ccccc2)nnc1-c1ccncc1,i
COCCNC(=O)Nc1ccc2nc(-c3ccccn3)c(-c3ccccn3)nc2c1,i
# The list continues.
SMILES,Mtb growth
Cc1ccc([N+](=O)[O-])cc1NC(=S)NC(=O)c1ccc(Cl)cc1Cl,3%
COc1ccc2oc(=O)c(C(=O)NC3CCCCCC3)cc2c1,?
CCC(C)c1ccccc1NC(=O)COc1ccccc1[N+](=O)[O-] (stereo not drawn),2%
O=C(CSc1nnnn1-c1ccccc1)N1N=CCC1c1ccccc1 (stereo not drawn),i
CCOC(=O)N1CCN(C(=O)CC(c2ccccc2)c2ccccc2)CC1,i
COc1cc(C#N)cc(Cl)c1OC/C=C/c1ccccc1,i
CCCOc1ccc2c(=O)c(N3C(=O)c4ccccc4C3=O)c(C)oc2c1,i
COc1ccc(S(=O)(=O)NC2CC2)cc1C(=O)N1CCOCC1,i
Cc1cc(N)n2nc(-c3ccc(Cl)cc3)cc2n1,i
COCCNC(=O)C1CCN(Cc2ccc(OCc3ccccc3)cc2)CC1,i
CC(C)c1ccc(N(CC(=O)N2CCN(C)CC2)S(=O)(=O)c2ccccc2)cc1,i
Cc1c(C(=O)Nc2sc3c(c2C(=O)NCc2ccco2)CCCC3)oc2ccccc12,i
CCCCNC(=O)c1sc2nc3c(cc2c1NC(C)=O)COC(C)(C)C3,i
Cc1ccc([N+](=O)[O-])cc1NC(=O)c1ccc(C)c(S(=O)(=O)N2CCCC2)c1,i
COc1cc(/C=C2/N=C(c3ccccc3)OC2=O)cc(Cl)c1OC(=O)c1ccco1,i
CCCCNCCCOc1ccc(Br)cc1Cl,10%
CC(C)CCNC(=O)Nc1ccc(Cl)cc1,i
COc1ccc(CCNC(=O)c2ccccc2-c2ccccc2)cc1OC,i
Cc1ccccc1OCC(=O)Nc1ccccc1C(=O)NC1CCCCC1,i
COc1cccc(C(=O)Nc2ccc(CC(=O)O)cc2)c1,1%
O=C(CN1C(=O)c2cccc3cccc1c23)Nc1ccc(S(=O)(=O)N2CCCC2)cc1,i
Cc1cc2nc(C(C)(C)C)cc(N)n2n1,1%
CCOC(=O)N1CCN(C(=O)COc2ccc(C(C)C)cc2Br)CC1,i
O=c1c2ccccc2ncn1CCCOc1cc(Cl)ccc1Cl,i
CC1=C(Cl)c2ccc(C)cc2S1(=O)=O,i
COC(=O)c1ccc2c(=O)n(CC3CCCO3)c(=S)[nH]c2c1 (stereo not drawn),i
Cc1ccc(NC(=O)COc2cc(C)c(Br)c(C)c2)c([N+](=O)[O-])c1,i
Cc1c(Cl)cccc1-c1ccc(C(=O)N2CCN(c3ccc(C(F)(F)F)cc3[N+](=O)[O-])CC2)o1,i
O=c1cc(-c2cccc([N+](=O)[O-])c2)[nH][nH]1,i
Cc1cccc(NC(=O)CCc2ccc(S(=O)(=O)NCc3ccccc3)cc2)c1C,3%
COc1cc(Br)c(CNC(C)(C)CO)cc1OC,i
Cc1ccc(S(=O)(=O)N(C)CC(=O)Nc2ccc([N+](=O)[O-])cc2)cc1,i
Cc1ccc(C)n1NC(=O)c1cccs1,i
CC12CCC(C(=O)Nc3ccccc3C(F)(F)F)(c3nc4ccccc4nc31)C2(C)C (stereo not drawn),1%
CCOC(=O)CN1NC2(CCCCC2)NC1=S,48%
CCOCCC(=O)N1CCN(C)CC1,i

# Pulled one by one from the list above, three records:
SMILES,Mtb growth
CCOC(=O)CN1NC2(CCCCC2)NC1=S,48%
O=c1cc(-c2cccc([N+](=O)[O-])c2)[nH][nH]1,i
CCOCCC(=O)N1CCN(C)CC1,i

# The listing continues.
SMILES,Mtb growth
CCOC(=O)N1CCC(Nc2ncnc3c2cnn3-c2ccc(Cl)cc2)CC1,0%
COC(=O)c1c(-c2ccccc2)csc1NC(=O)Cc1cccs1,4%
CS(=O)(=O)N(CC(=O)N1CCCC1)C1CCCCC1,i
O=C(NNC(=O)c1cccs1)c1ccc(NC(=O)c2ccccc2)cc1,i
Cc1ccc2ncnc(Nc3ccccc3Cl)c2c1,1%
O=C(COc1ccc(S(=O)(=O)NC2CCCCC2)cc1Cl)Nc1cccc([N+](=O)[O-])c1,i
CC(Sc1nnc2n(CCOc3ccccc3)c3ccccc3n12)C(=O)O (stereo not drawn),i
O=C(O)CN(CCc1ccccc1)S(=O)(=O)c1ccccc1,i
Cc1c(C(=O)N2CCCCCC2)oc2ccccc12,i
c1cc2c(cc1N1COc3cc4c(cc3C1)OCO4)OCCO2,i
O=C(CN(c1ccc2c(c1)OCCO2)S(=O)(=O)c1ccccc1)Nc1cccnc1,i
CC1=C(C(=O)OCc2ccccc2)C(c2ccc(F)c(F)c2)C2=C(CCCC2=O)N1 (stereo not drawn),3%
Cc1ccc([N+](=O)[O-])cc1S(=O)(=O)N(C)C,i
NC(=O)c1ccccc1NC(=O)CSCc1ccccc1Cl,i
CSc1nc2c(c(=O)n(C)c(=O)n2C)n1Cc1ccccc1C,i
O=C(COc1ccc(F)cc1)Nc1nnc(C2CCCCC2)s1,4%
Nc1c(NCc2ccccc2)c2ccccc2oc1=O,i
CCOc1ccc(S(=O)(=O)Nc2cc(C(=O)OC)ccc2C)cc1,i
CCOC(=O)C1CCN(C(=O)Cn2cc(C(=O)c3cccs3)c3ccccc32)CC1,i
OC(c1ccccc1)(c1ccccc1)C1CCN(C(=S)Nc2ccc(F)cc2)CC1,i
N#Cc1ccc(C(=O)Nc2ccc(Br)cc2Cl)c(F)c1,6%
Cc1cc(C)n(C(=O)CN2C(=O)C3CCCCC3C2=O)n1 (stereo not drawn),i
COC(=O)c1ccccc1NC(=O)COc1ccc(C(C)C)cc1,i
CCOc1cccc(OCCCCN2CCOCC2)c1,i

# The last 12 entries of the part above are carried over, then new ones follow:
SMILES,Mtb growth
Cc1ccc([N+](=O)[O-])cc1S(=O)(=O)N(C)C,i
NC(=O)c1ccccc1NC(=O)CSCc1ccccc1Cl,i
CSc1nc2c(c(=O)n(C)c(=O)n2C)n1Cc1ccccc1C,i
O=C(COc1ccc(F)cc1)Nc1nnc(C2CCCCC2)s1,4%
Nc1c(NCc2ccccc2)c2ccccc2oc1=O,i
CCOc1ccc(S(=O)(=O)Nc2cc(C(=O)OC)ccc2C)cc1,i
CCOC(=O)C1CCN(C(=O)Cn2cc(C(=O)c3cccs3)c3ccccc32)CC1,i
OC(c1ccccc1)(c1ccccc1)C1CCN(C(=S)Nc2ccc(F)cc2)CC1,i
N#Cc1ccc(C(=O)Nc2ccc(Br)cc2Cl)c(F)c1,6%
Cc1cc(C)n(C(=O)CN2C(=O)C3CCCCC3C2=O)n1 (stereo not drawn),i
COC(=O)c1ccccc1NC(=O)COc1ccc(C(C)C)cc1,i
CCOc1cccc(OCCCCN2CCOCC2)c1,i
O=C(Nc1nc(-c2cccs2)c(-c2ccccc2)s1)c1ccco1,32%
Cc1cc(C(=O)N2CCN(S(C)(=O)=O)CC2)sc1-c1ccccc1,i
CCOC(=O)C(Cc1ccccc1)C(=O)Nc1ccc(Cl)cc1 (stereo not drawn),i
CCCC(=O)Nc1ccccc1NC(=O)c1cc(Br)ccc1Cl,i
C=CCC(CC=C)(C(=O)O)c1ccccc1,i
CCSc1nc(O)cc(=O)n1-c1ccccc1,0%
COC(=O)c1c(-c2ccccc2)csc1NC(=O)c1c(-c2ccccc2)noc1C,i
CCOC(=O)C1CCN(C(=O)COc2ccc(S(=O)(=O)NC(C)C)cc2)CC1,i
Cc1cc2oc(=O)c3c(c2cc1O)CCCC3,i
O=C(CC12CC3CC(CC(C3)C1)C2)N1CCN(c2ccc([N+](=O)[O-])c(N3CCOCC3)c2)CC1,1%
O=C(Nc1ccccc1)c1cccnc1NCc1ccccc1,10%
COc1ccc(NS(=O)(=O)c2ccc(C)cc2)cc1Cl,5%
COc1cc(OC)c(NC(=O)N2CCOCC2)cc1Cl,0%
Nc1ccc2nc(SCC(=O)N3CCN(c4ccc(Cl)cc4)CC3)sc2c1,i
CCCOc1cccc(C(=O)Nc2nc(-c3ccc(S(=O)(=O)N4CCCC4)cc3)cs2)c1,i
COc1ccc(OCCCC(=O)Nc2cc(C)ccc2OC)cc1,i
Cn1nnc(C(O)CNCc2ccc(Cl)cc2)n1 (stereo not drawn),i
COC(=O)c1ccc(C(=O)OC)c(NC(=O)CCc2ccc(OC)cc2)c1,7%
O=C(O)c1cccc(NC(=O)c2sc3cc(Cl)ccc3c2Cl)c1,i
O=C(c1ccco1)N(CCC(c1ccccc1)c1ccco1)Cc1ccco1 (stereo not drawn),i
CCOc1ccc(-c2nc(C#N)c(N3CCCC3)o2)cc1,i
O=C(Nc1ccc2c(c1)OCO2)c1cccc(S(=O)(=O)N2CCCC2)c1,i
O=C(CNS(=O)(=O)c1cccc(C(F)(F)F)c1)N1CCC(Cc2ccccc2)CC1,7%
